High-throughput results from PubChem BioAssay.
SARS PLP yeast: qHTS of Yeast-based Assay for SARS-CoV PLP; S. cerevisiae expressing SARS-CoV PLpro, growth rescue; control for the full effect not named in the record; Potency, µM (series often up to 32.9 µM), for inactives: at the highest dose activity, positive = growth rescue; AID 485353, 2010; 330,000 compounds, 0.19% hits; active means well fitted rising curve with a large enough effect; inconclusive means small, poorly fitted or top-dose-only effect; inactive means no such curve, though single readings can be large or run the other way; further: 0% is about no effect; nearly all actives have a fitted effect of over 55% in size; growth read by luminescence after 48 h
LASV entry inh: qHTS for Inhibitors of binding or entry into cells for Lassa Virus | Lassa virus pseudotype entry inhibition, cell reporter; control for the full effect not named in the record | Potency, µM (titrated, usually from 37.9 µM), for inactives: at the highest dose activity change, negative = inhibition, usual class: inhibitors | 300,000 compounds, 1.2% hits; active means well fitted inhibition curve with a large enough effect; inconclusive means small, poorly fitted or top-dose-only effect, or effect the other way; inactive means flat fitted curve, though single readings scatter; tested in HEK293 cells; further: on the % scale 0 is the no-effect control and ±100 the full control effect; nearly all actives have a fitted effect of over 50% in size; luciferase read-out
Cruzain inh Det: qHTS Assay for Promiscuous and Specific Inhibitors of Cruzain (with detergent); purified cruzain, Z-FR-AMC fluorescence, 0.01% Triton; Potency, µM, for the others: max response, negative = inhibition, most hits filed as inhibitors; 200,000 compounds, 0.43% hits;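 further: plate controls were neutral wells for no effect and buffer without enzyme for full effect; nearly all actives have a fitted effect of over 40% in size; top concentration of the series not given in the record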
Target sequence (P25779 123-467 limits assumed): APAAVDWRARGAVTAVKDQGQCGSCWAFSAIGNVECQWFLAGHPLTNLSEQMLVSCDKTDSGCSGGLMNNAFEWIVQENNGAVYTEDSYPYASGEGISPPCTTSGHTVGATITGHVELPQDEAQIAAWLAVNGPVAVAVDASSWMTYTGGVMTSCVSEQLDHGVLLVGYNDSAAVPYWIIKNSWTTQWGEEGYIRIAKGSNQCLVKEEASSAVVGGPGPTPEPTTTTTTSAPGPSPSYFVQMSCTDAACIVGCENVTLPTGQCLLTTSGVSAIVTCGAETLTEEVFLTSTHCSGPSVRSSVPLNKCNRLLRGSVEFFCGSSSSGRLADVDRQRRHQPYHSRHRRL
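In this qHTS format, compounds are incubated with 1.5 nM cruzain for 15 min at room temperature before 2 uM Z-FR-AMC is added. Release of AMC is followed at 360/450 nm, and progress is taken as the 60 s fluorescence difference.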
RE007 growth inh: qHTS Assay for Inhibitors of the HIV-1 protein Vpr | 360,000 compounds, 0.21% hits | Potency, µM (titrated, usually from 92.2 µM), for the others: at the top dose activity change, negative = less growth | S. pombe RE007 Vpr strain, BacTiter-Glo ATP luminescence, 24 h; control for the full effect not named in the record; active = well fitted falling curve with a large enough effect; inconclusive = small, poorly fitted or top-dose-only effect; inactive = no such curve, though single readings can be large or run the other way;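 further: on the % scale 0 is the no-effect control and ±100 the full control effect; nearly all actives have a fitted effect of over 50% in size; the assay follows cell death caused by Vpr and the record does not say whether a fall means rescue or toxicity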
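Fission yeast strain RE007, carrying one chromosomally integrated HIV-1 vpr copy, was seeded at OD 0.01 in PMG+AL medium with 23 nL pinned compound. After 24 h at 30 °C and 99% humidity, viability was read by BacTiter-Glo luminescence.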
NS1 function inh: qHTS Assay for Inhibitors of Influenza NS1 Protein Function; S. cerevisiae slowed by influenza A NS1, growth recovery by OD600; Potency, µM (series often up to 46.1 µM), for the others: at the highest dose activity, positive = more growth; 270,000 compounds, 0.4% hits; active means well fitted rising curve with a large enough effect; inconclusive means small, poorly fitted or top-dose-only effect; inactive means no such curve, though single readings can be large or run the other way; further: nearly all actives have a fitted effect of over 50% in size
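Compounds were scored for reversing the slow growth caused by influenza A NS1 in S. cerevisiae, measured by optical density at 600 nm. Assay medium contained 2% galactose at pH 6.0; NS1-free yeast of the same strain were the positive control.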
Cruzain noTriton: qHTS Assay for Promiscuous and Specific Inhibitors of Cruzain (without detergent); 200,000 compounds, 2.3% hits; Cruzipain (Trypanosoma cruzi), P25779; purified cruzain, Z-FR-AMC fluorescence, no detergent; Potency, µM, inactives show max response, negative = inhibition, usual class: inhibitors;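 further: plate controls were enzyme without inhibitor for no effect and buffer without enzyme for full effect; nearly all actives have a fitted effect of over 40% in size; top concentration of the series not given in the record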
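Purified cruzain at 1.5 nM, pre-incubated 15 min with compound at room temperature in 100 mM sodium acetate pH 5.5, 5 mM DTT, 0.00005% Triton X-100. Reaction started with 2 uM Z-FR-AMC; AMC fluorescence increase over 60 s gives rate.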
StopGo reporter: High Throughput Screening for Foot and Mouth Disease Virus Antivirals | Potency, µM (highest dose often 57.9 µM), without a hit: at the top dose signal change, negative = less light | 410,000 compounds, 1.2% hits | human cells with a luciferase reporter of 2A StopGo recoding; control for the full effect not named in the record | AID 1159524, 2015; active = well fitted falling curve with a large enough effect; inconclusive = small, poorly fitted or top-dose-only effect; inactive = no such curve, though single readings can be large or run the other way; tested in HEK293T cells; further: on the % scale 0 is the no-effect control and ±100 the full control effect; nearly all actives have a fitted effect of over 45% in size; luciferase light after 4 h
Marburg entry inh: qHTS for inhibitors of binding or entry into cells for Marburg Virus. Marburg virus pseudotyped entry inhibition, cell reporter; control for the full effect not named in the record; about a third of the inactives were read at about 46 µM. Potency, µM (highest dose often 37.8 µM), for inactives: at the highest dose activity change, negative = inhibition, usual class: inhibitors. 300,000 compounds, 1.8% hits; active = well fitted inhibition curve with a large enough effect; inconclusive = small, poorly fitted or top-dose-only effect, or effect the other way; inactive = flat fitted curve, though single readings scatter; tested in HEK293 cells; about a fifth of its hits are not listed in these tables; further: on the % scale 0 is the no-effect control and ±100 the full control effect; luciferase read-out
* marks the source's active call; other numbers are inactive results; [ ] = remark or other dose. Unless noted, the call rests on the fitted dose curve; in most records, active means well fitted curve in the direction sought with a large enough effect; inconclusive means small, poorly fitted or top-dose-only effect, or another doubt; inactive means no such curve, though single readings can be large; an effect the other way counts as inactive or inconclusive. Potency means the concentration at half of the fitted maximal effect.

How did O=c1cc(-c2ccccc2)n2c(SCc3c(F)cccc3Cl)nnc2[nH]1 do in these assays?
LASV entry inh: 1%[46.1 µM]; Cruzain inh Det: -0.8%; Cruzain noTriton: 3%; StopGo reporter: 9%

How did Cc1ccnc(NC(=O)C2CC(=O)N(c3ccc4c(c3)OCCO4)C2)c1 (configuration not stated) do in these assays?
SARS PLP yeast: -3%; RE007 growth inh: -16%; NS1 function inh: -4%; StopGo reporter: -6%

How did C=CCNC(=O)C1CCN(c2ccc(S(=O)(=O)N3CCOCC3)cc2Cl)CC1 do in these assays?
SARS PLP yeast: 1%; LASV entry inh: -17%; RE007 growth inh: 12%; NS1 function inh: 3%; StopGo reporter: -25%; Marburg entry inh: 16%[46.1 µM]

What do the screens show for `COC(=O)c1ccccc1NC(=S)NC(=O)COc1ccccc1Cl`?
SARS PLP yeast: -3%; LASV entry inh: 14%; Cruzain inh Det: -5.5%; RE007 growth inh: -8%; NS1 function inh: -6%; Cruzain noTriton: 5%; StopGo reporter: -7%; Marburg entry inh: 12%

What do the screens show for `CCOC(=O)C1CCN(c2cc3c(cc2NC(=O)c2ccccc2F)n(C)c(=O)n3C)CC1`?
SARS PLP yeast: inconclusive; LASV entry inh: -12%[46.1 µM]; RE007 growth inh: -7%; NS1 function inh: -1%; StopGo reporter: -20%; Marburg entry inh: -13%[46.1 µM]

Results for O=C(Nc1ccc(F)cc1)OC1CN2CCC1CC2 (configuration not stated) ?
SARS PLP yeast: 0%; LASV entry inh: 2%; RE007 growth inh: -10%; NS1 function inh: 2%; StopGo reporter: 11%; Marburg entry inh: 0%[46.1 µM]

Results for Cc1cc(C)cc(N(CC(=O)NCc2ccco2)S(=O)(=O)c2ccccc2)c1 ?
SARS PLP yeast: 0%; RE007 growth inh: 2%; NS1 function inh: -12%; StopGo reporter: 27%; Marburg entry inh: inconclusive

What do the screens show for `Cc1noc(NS(=O)(=O)c2ccc(N/C=C\C(=O)c3ccc(Br)cc3)cc2)c1C`?
SARS PLP yeast: -4%; LASV entry inh: 6%; RE007 growth inh: 12%; NS1 function inh: -82%; StopGo reporter: 0%; Marburg entry inh: 0%

How did CCSc1nnc(NC(=O)[C@@H](NC(=O)c2ccc(C(C)(C)C)cc2)C(C)C)s1 do in these assays?
SARS PLP yeast: -21%; LASV entry inh: -4%; Cruzain inh Det: -8.8%; RE007 growth inh: 15%; NS1 function inh: 21%; Cruzain noTriton: inconclusive; StopGo reporter: -24%; Marburg entry inh: -2%

What do the screens show for `CC(OC(=O)CCN1C(=O)C2CC=CCC2C1=O)C(=O)Nc1cccc(C#N)c1` (configuration not stated)?
SARS PLP yeast: 0%; LASV entry inh: -13%; RE007 growth inh: 6%; StopGo reporter: -20%; Marburg entry inh: 12%

Results for COCCCN(C(=O)CSc1nc2ccccc2c(=O)n1C)c1c(N)n(Cc2ccccc2)c(=O)[nH]c1=O ?
LASV entry inh: 0%; RE007 growth inh: -5%; StopGo reporter: -13%; Marburg entry inh: 15%

What do the screens show for `COC(=O)c1ccc2c(=O)n(CC3CCCO3)c(SCC(=O)NCCc3ccc(S(N)(=O)=O)cc3)nc2c1` (configuration not stated)?
SARS PLP yeast: -1%; LASV entry inh: 0%[46.1 µM]; RE007 growth inh: 4%; StopGo reporter: 22%; Marburg entry inh: 17%[46.1 µM]

How did O=C(NCCC(NS(=O)(=O)OCC(Cl)(Cl)Cl)c1ccccc1)C(F)(F)F (configuration not stated) do in these assays?
SARS PLP yeast: 2%; RE007 growth inh: 5%; NS1 function inh: -8%; StopGo reporter: -18%

What do the screens show for `O=C(COc1cc([N+](=O)[O-])cc2cccnc12)NCCC1=CCCCC1`?
SARS PLP yeast: -6%; LASV entry inh: -19%[46.1 µM]; RE007 growth inh: -6%; NS1 function inh: -7%; StopGo reporter: -17%; Marburg entry inh: inconclusive

Results for COc1ccc2c(CN3CC=C(c4ccccc4)CC3)cc(=O)oc2c1 ?
SARS PLP yeast: 0%; LASV entry inh: 12%; RE007 growth inh: -11%; StopGo reporter: 0%; Marburg entry inh: inconclusive

Results for Cc1noc(C)c1C(=O)N1CCN(S(=O)(=O)c2ccc(F)cc2)CC1 ?
SARS PLP yeast: 0%; LASV entry inh: -13%[46.1 µM]; RE007 growth inh: 11%; StopGo reporter: 2%; Marburg entry inh: 1%[46.1 µM]

How did CON(C)S(=O)(=O)c1ccc2c(c1)NC(=O)C1CCCN21 (configuration not stated) do in these assays?
SARS PLP yeast: -6%; LASV entry inh: -2%; Cruzain inh Det: -1.6%; RE007 growth inh: 5%; NS1 function inh: 28%; Cruzain noTriton: 16%; StopGo reporter: 0%; Marburg entry inh: -4%

Results for COc1ccc(CCNC(=O)CCS(=O)(=O)c2cc(Br)cc3c2N(C(C)=O)CC3)cc1OC ?
LASV entry inh: 2%[46.1 µM]; Cruzain inh Det: -1.0%; Cruzain noTriton: 3%; StopGo reporter: 5%; Marburg entry inh: -13%[46.1 µM]

What do the screens show for `CC(C)OP(=O)(OC(C)C)C(O)c1ccccc1F` (configuration not stated)?
SARS PLP yeast: 23%; LASV entry inh: inconclusive; Cruzain inh Det: -1.3%; RE007 growth inh: 8%; NS1 function inh: -4%; Cruzain noTriton: -2%; StopGo reporter: -1%; Marburg entry inh: 10%

What do the screens show for `COc1ccc(CCNC(=O)C2CC(=O)N(C3CCCCCCC3)C2)cc1OC` (configuration not stated)?
SARS PLP yeast: 3%; LASV entry inh: 10%; Cruzain inh Det: 5.0%; RE007 growth inh: 3%; NS1 function inh: -2%; Cruzain noTriton: -5%; StopGo reporter: -5%; Marburg entry inh: 0%

What do the screens show for `Cc1ccc(-c2cc(C(=O)Nc3cc(C(=O)O)ccc3C)c3ccccc3n2)cc1`?
SARS PLP yeast: -8%; LASV entry inh: inconclusive; RE007 growth inh: 6%; StopGo reporter: 26%; Marburg entry inh: -2%[46.1 µM]

How did COc1cccc(C(=O)Nc2cccc3ccccc23)c1 do in these assays?
SARS PLP yeast: 3%; LASV entry inh: 0%; RE007 growth inh: -1%; NS1 function inh: -6%; StopGo reporter: 26%; Marburg entry inh: inconclusive

How did COc1cccc(NS(=O)(=O)c2ccc(-n3cccn3)cc2)c1 do in these assays?
SARS PLP yeast: 2%; RE007 growth inh: -2%; NS1 function inh: -2%; StopGo reporter: -7%

How did CCOc1nc(-c2ccccc2)ccc1-c1noc(-c2cccnc2)n1 do in these assays?
LASV entry inh: 3%; RE007 growth inh: 8%; NS1 function inh: -1%; StopGo reporter: -11%; Marburg entry inh: -2%[46.1 µM]

What do the screens show for `O=C(Cn1c2ncccc2c(=O)n1-c1ccccc1)Nc1ccc(F)c(F)c1`?
LASV entry inh: inconclusive; Cruzain inh Det: 0.0%; Cruzain noTriton: 5%; StopGo reporter: -6%

Results for CN(C(=O)C1CCC(=O)N(CCCN2CCCC2=O)C1)C(C1CC1)C1CC1 (configuration not stated) ?
SARS PLP yeast: -10%; LASV entry inh: 13%[46.1 µM]; RE007 growth inh: 9%; NS1 function inh: 3%; StopGo reporter: 34%; Marburg entry inh: 3%[46.1 µM]

How did CCCCN(C)CCC(=O)Nc1ccc2c(c1)CCC2 do in these assays?
SARS PLP yeast: -1%; LASV entry inh: 3%; RE007 growth inh: -5%; NS1 function inh: -3%; StopGo reporter: -16%; Marburg entry inh: -18%

What do the screens show for `CC(C)CC(=O)N1CCN(C(=O)c2cccc(F)c2)CC1`?
SARS PLP yeast: -2%; LASV entry inh: 2%; Cruzain inh Det: 3.0%; RE007 growth inh: -9%; NS1 function inh: 5%; Cruzain noTriton: 2%; StopGo reporter: -13%; Marburg entry inh: 0%

Results for CC1CCN(CCNC(=O)C2CCN(S(=O)(=O)c3cccc4nsnc34)CC2)CC1 ?
SARS PLP yeast: 1%; RE007 growth inh: 12%; NS1 function inh: 5%; StopGo reporter: -3%

Results for Cc1cc(C(=O)NCC(c2ccco2)N(C)C)no1 (configuration not stated) ?
SARS PLP yeast: -2%; LASV entry inh: 8%; Cruzain inh Det: 5.1%; RE007 growth inh: 8%; NS1 function inh: 23%; Cruzain noTriton: -6%; StopGo reporter: -3%; Marburg entry inh: inconclusive

What do the screens show for `COc1ccc(OC)c(C2CC(=O)OC3=C2C(=O)CC(C)(C)C3)c1` (configuration not stated)?
SARS PLP yeast: -6%; LASV entry inh: 3%; RE007 growth inh: 3%; StopGo reporter: -13%; Marburg entry inh: 26%[46.1 µM]

What do the screens show for `CCCCc1ccc(NC(=O)N[C@H](C(=O)O)C(C)CC)cc1` (some centres not stated)?
SARS PLP yeast: -3%; LASV entry inh: -5%; Cruzain inh Det: -0.9%; RE007 growth inh: -2%; NS1 function inh: 6%; Cruzain noTriton: 13%; StopGo reporter: 15%; Marburg entry inh: 12%

How did O=C(Nc1ccccc1C(=O)NCc1cccnc1)c1ccco1 do in these assays?
SARS PLP yeast: 8%; LASV entry inh: -17%; Cruzain inh Det: 0.7%; RE007 growth inh: -4%; NS1 function inh: 3%; Cruzain noTriton: 10%; StopGo reporter: -23%; Marburg entry inh: 12%[46.1 µM]

How did O=C(CSc1nnc(-c2ccccc2)n1Cc1ccccc1)N1CCOCC1 do in these assays?
SARS PLP yeast: 4%; LASV entry inh: 1%; Cruzain inh Det: 2.5%; RE007 growth inh: 4%; NS1 function inh: -4%; Cruzain noTriton: 11%; StopGo reporter: -5%; Marburg entry inh: -12%

What do the screens show for `COc1ccc(-n2c(SCC(=O)N3CCC(C)CC3)nc3c([nH]c4ccccc43)c2=O)cc1`?
LASV entry inh: -5%[46.1 µM]; Cruzain inh Det: -2.2%; Cruzain noTriton: -11%; StopGo reporter: -5%
